Source: PubChem
Vif TR-FRET = inhibitors of Vif binding to APOBEC3G peptide, primary screen, biochemical, TR-FRET, GST-Vif 1-94, biotin-A3G peptide, dose response retest (AID 1117319). TR-FRET GST-Vif / biotin-A3G peptide binding; higher % means a stronger effect; test concentration not given here; strong numbers were not always called active. one-dose inhibition, %; IC50 in µM for titrated hits. 260,000 tested, 0.57% active;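 active = above the screen mean plus three standard deviations and confirmed in dose response; inconclusive = results disagree or hit not tested in dose response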;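 note: Vif residues 1-94 fused to GST binding biotinylated APOBEC3G peptide 110-148; 0% = full assay without inhibitor and 100% = GST in place of GST-Vif; retest series ran down from 100 µM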
ALR inh = inhibitors of human sulfhydryl oxidase ALR; purified ALR, DTT oxidation, H2O2 HRP-luminol luminescence; 290,000 tested, 3.8% active; inhibition, % (test concentration not listed); P55789;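 active = mean and each replicate at 75% or more; inconclusive = only one of the two met; inactive = neither met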;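 note: stock transfer was 7.5 nL into about 7.5 µL; 0% = neutral wells and 100% = wells with inactivated enzyme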
Target sequence (P55789 whole entry, looked up): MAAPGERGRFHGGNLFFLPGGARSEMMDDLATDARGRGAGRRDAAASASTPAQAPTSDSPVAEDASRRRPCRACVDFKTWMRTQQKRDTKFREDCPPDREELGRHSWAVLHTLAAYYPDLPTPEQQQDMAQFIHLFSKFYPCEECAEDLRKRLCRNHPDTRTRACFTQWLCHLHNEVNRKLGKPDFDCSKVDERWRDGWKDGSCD
Calb FLC = affects C. albicans growth with fluconazole. growth inhibition, % (no concentration beside the values). AID 1979. 300,000 tested, 0.57% active. C. albicans CaCi-2 (fluconazole-resistant clinical isolate) + fluconazole, Alamar Blue growth, 48 h;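 active = most replicates above 75%; inconclusive = exactly half above 75%; inactive = most below 75%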;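 note: all wells also contain fluconazole at 8 µg/ml as a sub-toxic cotreatment; 0% = median of DMSO wells and 100% = median of geldanamycin control wells; wells of about 8 µL received 7.5 nL stock; the first replicate is given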
HNF4A DNA FP = change in binding of human HNF4 alpha to DNA | HNF4a-FITC DNA binding, fluorescence polarization, 1 h | activity change, % at 10 µM | 360,000 tested, 0.3% active | AID 1224865; in the data active = activity change above about 30%, passing the limit was not always enough;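 note: controls were the assay level and a saturating level of protein; the project sought stronger binding though the title names inhibitors; some compounds called inactive have numbers as strong as hits; positive values seem to mean higher polarization but the record does not say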
Target sequence (P41235 whole entry, looked up): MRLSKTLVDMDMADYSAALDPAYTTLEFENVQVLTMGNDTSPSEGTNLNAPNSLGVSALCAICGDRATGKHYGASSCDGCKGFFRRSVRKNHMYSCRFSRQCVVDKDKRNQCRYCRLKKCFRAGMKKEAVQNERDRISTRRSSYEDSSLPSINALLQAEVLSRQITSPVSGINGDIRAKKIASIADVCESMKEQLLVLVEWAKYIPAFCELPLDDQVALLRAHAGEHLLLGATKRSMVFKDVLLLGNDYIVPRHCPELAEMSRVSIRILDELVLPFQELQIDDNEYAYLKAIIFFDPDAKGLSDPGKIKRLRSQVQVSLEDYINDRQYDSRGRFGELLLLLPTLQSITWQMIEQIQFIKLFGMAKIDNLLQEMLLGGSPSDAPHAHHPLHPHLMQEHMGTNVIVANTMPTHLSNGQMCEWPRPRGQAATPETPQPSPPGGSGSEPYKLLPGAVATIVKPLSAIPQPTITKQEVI
RanGTP-Imp inh = inhibitors of RanGTP-importin-beta interaction, primary screen, biochemical, FRET, CFP-Ran, YFP-importin-beta, homogeneous; cell-free CFP-Ran/YFP-importin-beta FRET ratio; inhibition, % (concentration not given with the values); 300,000 tested, 1.1% active;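 active = most replicates above 15%; inconclusive = exactly half above 15%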;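 note: 0% = DMSO wells and 100% = Ran loaded with GDP instead of GTP; wells of about 40 µL received 100 nL stock; the first replicate is given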
B2AR ag = agonists of human beta-2 adrenergic receptor inducing internalization; P07550; Am2.2-beta2AR cells, FAP receptor internalization, flow cytometry; reference of the scale not given here; response, % (test concentration not listed); 340,000 tested, 0.43% active;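 active = response above a set limit, near 3 SD of response in nonfluorescent compounds, cut at about 42% in these data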;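 note: stock transfer was 100 nL into about 11 µL; a reference agonist was the positive control; negative values mostly stem from fluorescent compounds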
Target sequence (P07550 whole entry, looked up): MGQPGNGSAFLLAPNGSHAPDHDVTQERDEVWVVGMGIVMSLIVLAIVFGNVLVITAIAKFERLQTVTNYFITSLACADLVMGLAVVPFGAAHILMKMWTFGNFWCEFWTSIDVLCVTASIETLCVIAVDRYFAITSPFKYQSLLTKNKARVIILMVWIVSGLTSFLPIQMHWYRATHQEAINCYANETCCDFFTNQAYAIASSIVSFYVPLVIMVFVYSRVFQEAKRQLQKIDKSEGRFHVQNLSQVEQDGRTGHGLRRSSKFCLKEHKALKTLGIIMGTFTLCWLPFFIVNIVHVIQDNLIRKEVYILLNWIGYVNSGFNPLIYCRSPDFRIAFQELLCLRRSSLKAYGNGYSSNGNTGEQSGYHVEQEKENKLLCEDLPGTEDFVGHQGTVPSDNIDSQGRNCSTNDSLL
LANA-H2B inh = blocks KSHV LANA binding to histone H2A/H2B; Q9QR71; cell-free LANA-H2A/H2B peptide, fluorescence polarization; inhibition, % (concentration not given with the values); 320,000 tested, 0.6% active; in the data active = inhibition mostly above about 10%, no sharp cut-off; inactive = mostly below about 6.7%;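 note: stock transfer was 7.5 nL into about 10 µL; 0% = median of vehicle wells and 100% = median of positive control wells; one replicate is shown; the record names a cut of 25% in any replicate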
* hit, by the source's call; ? = inconclusive; / = not tested or not shown; & = joins results of further samples.

Order of values: Vif TR-FRET	ALR inh	Calb FLC	HNF4A DNA FP	RanGTP-Imp inh	B2AR ag	LANA-H2B inh
- COc1ccc(C2C=C(c3cccs3)Nc3nc(CCCO)nn32)cc1 (configuration not stated)
    -7%	27	/	/	/	/	74*
- CN(C(=O)COC(=O)c1ccccc1NCCO)C1CCS(=O)(=O)C1 (configuration not stated)
    -4%	-3	-7	-0.3	2.7	0	-7.5
- CCOC(=O)c1c(NC(=O)COC(=O)/C=C/c2ccco2)sc2c1CC(C)(C)NC2(C)C
    6%	-1	1	-0.9	-3.2	-7	0.9
- Cc1nc(SCc2ccccc2)c2ccsc2n1
    /	0	1	3.4	1.0	-2	4.2
- Cc1cc(/C=N/O)c(C)n1-c1ccc(Br)cc1
    -7%	2	-9	1.0	-1.0	-11	-7.2
- COc1ccc(S(=O)(=O)N(C)C[C@H]2Oc3c(NC(=O)Nc4ccc(C(F)(F)F)cc4)cccc3C(=O)N([C@H](C)CO)C[C@@H]2C)cc1
    /	-2	/	-4.9	/	-10	-3.8
- COc1ccc(CC(=O)Nc2cccnc2)cc1
    /	-36	-11	-3.3	1.4	-10	-4.3
- CCNC(=O)CC1SC(=Nc2cccc3ccccc23)N(C)C1=O (configuration not stated)
    -1%	-18	-8	-2.5	-1.7	4	-3.1
- O=C(C1=C(O)C(=O)N(Cc2ccco2)C1c1cccc(O)c1)c1ccco1 (configuration not stated)
    /	4	-4	0.8	-6.3	-3	-4.1
- COC(=O)[C@H](CCSC)NC(=O)Nc1ccc(C)c(C)c1
    0%	0	5	6.6	-0.8	2	-0.2
- CCOC(=O)c1ccc(-c2ccc(C=O)o2)cc1
    -6%	16	-2	-0.8	-5.0	5	15
- Cc1[nH]c2ccccc2c1CCNS(=O)(=O)c1ccc(S(N)(=O)=O)cc1
    6%	90*	5	-0.4	1.3	5	3.3
- C=C(C)c1cccc(C(C)(C)NC(=O)NCc2ccncc2)c1
    -1%	3	3	2.7	-3.0	-1	-4.5
- CCC(SC1=N/C(=C/c2ccccc2OC)C(=O)N1c1ccccc1)C(=O)Nc1cc(C)on1 (configuration not stated)
    -3%	12	22	-1.3	10	1	-3.5
- COc1ccc(CCN2CC(C(=O)N(C)CCOc3ccccc3)CCC2=O)cc1 (configuration not stated)
    1%	-15	-4	-2.3	3.6	-7	-2.0
- S=c1[nH]nc(-c2ccccc2)n1CC1CCCO1 (configuration not stated)
    -4%	0	-5	1.3	1.9	-9	-2.4
- COc1ccc(S(=O)(=O)Nc2nccs2)cc1OC
    /	-14	-4	3.2	-2.0	1	-4.4
- Cc1cc(=O)c2c(o1)CC(C)(C)CC2=O
    -5%	1	?	27	6.0	4	-1.2
- O=C1CCCN1c1ccc(S(=O)(=O)N2CCCCC2)cc1[N+](=O)[O-]
    -6%	-4	-4	0.6	-0.3	2	3.3
- CC(=O)Nc1ccc(S(=O)(=O)NCC2CCC(C(=O)NCCCN(C)Cc3ccccc3)CC2)cc1 (configuration not stated)
    -2%	-1	9	2.3	-2.5	-8	2.1
- C/C(Cc1ccccc1)=N\NC(=O)CNC(=O)c1ccc(Br)cc1
    /	1	/	2.1	/	13	-1.7
- Cc1cc(C)c(OCC(=O)N2CCN(c3ncc(C(F)(F)F)cc3Cl)CC2)c(C)c1
    6%	4	1	-2.6	7.8	-13	-5.3
- CCOC(=O)C(C)n1cnc2c(nnn2-c2cccc(OC)c2)c1=O (configuration not stated)
    -4%	-1	13	6.1	-1.1	5	1.0
- CCn1ncc(C2=NOC(C(=O)Nc3cccc(O)c3)C2)c1C (configuration not stated)
    -7%	/	3	-2.0	?	-6	-2.4
- CC(C)n1cnc2c(Nc3cccc(Cl)c3)nc(N(CCO)CCCO)nc21
    ?	1	20	0.3	-2.9	9	-1.0
- O=c1cc2c(nn1Cc1cccc([N+](=O)[O-])c1)-c1ccccc1CC2
    -14%	/	7	4.2	2.5	-3	-4.7
- O=C(CCC1CCCC1)N1CCN(S(=O)(=O)c2ccc(Br)cc2)CC1
    /	-19	/	2.9	/	0	-0.7
- COc1ccc(C(=O)N/N=C(\C)c2ccc3c(c2)C2C=CCC2C(c2ccccc2)N3)cc1 (configuration not stated)
    ?	13	/	-1.2	/	0	4.9
- Cc1[nH]c2ccccc2c1/C=N/NC(=O)CNC(=O)c1cccs1
    13%	9	-1	-2.6	0.8	-2	6.1
- CN(C)S(=O)(=O)c1ccc(NC(=S)NC(=O)C2CCC2)cc1
    1%	-2	3	2.0	0.1	6	4.1
- Cc1ccc(SC(C)C(=O)N2CCN(c3ccccc3)CC2)cc1 (configuration not stated)
    /	47	13	0.2	-0.8	4	0.6
- CCOC(=O)N1CCN(S(=O)(=O)c2ccc3[nH]c(=O)sc3c2)CC1
    3%	-15	-8	-2.1	1.0	0	-1.7
- COc1cc(OC)cc(N2C(=O)CSCC2=O)c1
    6%	/	-2	2.9	2.5	2	-4.1
- COC(=O)CNC(=O)COC(=O)/C=C/c1cccs1
    -8%	-2	?	1.0	0.6	7	0.7
- CCOC(=O)c1sc2nc(C(C)C)c3c(c2c1N)CC(C)(C)OC3
    -7%	-1	1	1.0	1.2	17	8.3
- CCCCCOc1ccc(NC(=O)C(=O)NCC2CCCN2CC)cc1 (configuration not stated)
    2%	-2	-17	-1.7	5.9	8	0.6
- CNC(=O)C(=O)Nc1ccc2c(c1)N(S(=O)(=O)c1cccs1)CCC2
    -5%	1	5	-2.3	-1.5	10	1.4
- C[C@H](NC(=O)C1CCN(S(=O)(=O)c2ccccc2)CC1)C(=O)NCc1ccccn1
    -4%	-1	-5	0.1	3.2	-13	1.7
- Cc1ccc(C)c(OCCC(=O)OCC(=O)NCCNC(=O)COC(=O)CCOc2cc(C)ccc2C)c1
    -4%	9	/	0.3	-0.3	-6	1.1
- COc1ccc(-c2cccc(NS(=O)(=O)c3cccc([N+](=O)[O-])c3)c2)nn1
    -5%	/	47	-1.9	1.5	-2	/
- CC1(C)Cc2c(cnn2-c2ccccc2)C(=O)/C1=N\NC(=O)c1ccncc1
    /	-7	-4	1.2	2.8	/	-12
- COc1cccc(C2Nc3ccccc3C(=O)N2Cc2ccccc2)c1 (configuration not stated)
    /	-6	-5	1.6	1.8	35	-1.3
- Cc1ccc([N+](=O)[O-])cc1NC(=O)CN1CCCCC1
    0%	-5	0	0.6	-1.2	-14	2.2
- CCCc1cc(C(=O)N2CCCC(Nc3ccc(C)c(C)c3)C2)n(C)n1 (configuration not stated)
    2%	98*	-9	-4.9	-1.5	0	-1.9
- COCc1nnc(NC(=O)c2ccc(Cl)cc2[N+](=O)[O-])s1
    25%	/	-5	3.9	-1.3	0	0.5
- O=C(Nc1ccccc1C(F)(F)F)C1CC(=O)N(c2ccccc2F)C1 (configuration not stated)
    1%	-9	3	1.3	-0.6	0	-2.7
- Cc1cc(C)cc(N(C(=O)c2csnn2)C(C(=O)NC2CCCCC2)c2cccnc2)c1 (configuration not stated)
    /	-3	3	1.0	0.0	2	1.6
- COc1ccccc1-c1ccc(SCc2ccccc2)nn1
    5%	0	-29	-0.1	-1.6	4	5.8
- O=C(O)c1cccc(-c2ccc(/C=N/Nc3nn[nH]n3)o2)c1
    2%	2	3	1.7	1.6	-6	-3.6
- CCCCSc1nnc(-c2ccc(NC(C)=O)cc2)n1C
    /	/	-1	-0.7	-2.9	-12	-4.4
- CCOC(=O)COc1ccc2c(c1)c(C(=O)OCC)c(C)n2CC
    5%&1%	0	-3	1.0	-0.6	-2	-3.3
- O=C(Nc1cccnc1)c1cc(Br)c(Br)s1
    -20%	-10	18	-2.5	-0.6	2	-6.4
- Cn1c2ccccc2c2nnc(SCC(=O)Nc3cccc(O)c3)nc21
    -2%	-39	1	2.9	3.5	10	3.6
- O=C(COC(=O)c1ccc(Cl)nc1)NC1CCCCCC1
    5%	/	/	0.8	/	0	-1.5
- CCCC(C)c1nnc(NC(=O)CN2C(=O)c3ccccc3C2=O)s1 (configuration not stated)
    -7%	-4	-4	5.7	-0.4	10	-1.0
- CN1CCN(c2nc(Nc3ccc(O)cc3)nc3ccccc23)CC1
    5%	99*	0	-0.5	3.9	-5	-0.6
- CN(C(=O)COc1cccc(C#N)c1)C1CCS(=O)(=O)C1 (configuration not stated)
    -15%	-1	/	-3.4	/	-3	0.2
- COc1cccc(C(=O)NCc2ccc3[nH]c(C)cc3c2)c1
    -1%	-7	-7	-1.5	?	0	3.3
- CCC(C)NCCOCCOc1ccc(C)cc1OC (configuration not stated)
    10%	-3	2	-2.0	-1.3	-1	-1.5
- O=C1Nc2ccccc2/C1=C/c1ccc([N+](=O)[O-])cc1
    /	-6	-2	3.9	-14	18	2.8

Additional results.
Order of values: Vif TR-FRET	ALR inh	Calb FLC	HNF4A DNA FP	RanGTP-Imp inh	B2AR ag	LANA-H2B inh
- CCN(CC)S(=O)(=O)c1cc(NS(=O)(=O)c2cccc(C(=O)O)c2)ccc1C
    3%	-13	15	7.2	0.8	-1	1.6
- Cc1ccc(Oc2cnc3ccccc3n2)cc1
    -5%	-27	23	5.3	2.2	-4	3.8
- COc1ccc2nc(SCC(=O)NCCc3ccccc3)[nH]c2c1
    5%	/	-6	4.6	-1.7	0	-4.5
- CN(C)c1ccc(CSc2ccccc2)cc1
    -2%	/	/	0.3	/	-7	/
- Cc1ccc(C(=O)NNC(=O)CCOc2cccc(C)c2)cc1
    -10%	-2	/	-2.1	/	0	2.4
- Cn1c(=O)c(C(=O)NC2CCCCCCC2)c(O)c2ccccc21
    2%	-12	2	2.1	5.8	-5	1.9
- COCCOC(=O)c1[nH]c2c(c1C)C(=O)CC(c1ccccc1)C2 (configuration not stated)
    16%	/	6	2.0	-2.0	26	-8.7
- Cc1noc(C)c1NC(=O)Nc1ccc2c(c1)C(=O)N([C@H](C)CO)C[C@H](C)[C@@H](CN(C)C(=O)Nc1ccc3c(c1)OCO3)O2
    /	-19	/	-1.8	/	8	-1.6
- CCOC(=O)C1CCCN(C(=O)CSc2nc(C)cc(C)n2)C1 (configuration not stated)
    /	-1	24	-3.7	?	4	3.1
- CCOC(=O)C1NC(=O)CC1c1ccccc1 (configuration not stated)
    2%	-18	8	-0.9	-2.3	-3	0.6
- NC(=O)C1CCN(C(=O)c2cc3c(s2)CCCC3)CC1
    4%	-17	2	7.5	?	-1	-0.5
- Cc1ccc(-c2csc(NCCn3c(-c4ccncc4)nc4cc(C(F)(F)F)ccc43)n2)cc1
    /	3	/	2.1	/	-2	1.4
- CCOC(=O)c1c(C)nc2ccc(Cl)cc2c1-c1ccccc1
    3%	-3	-5	3.4	2.7	-5	-4.0
- Cc1c(C)n(C)c2ccc(C(=O)N3CCN(c4ccccn4)CC3)cc12
    -3%	-3	9	4.0	-3.9	0	0.1
- CCN(CC)C(=O)c1sc(NC(=S)N2CCN(C(=O)C3CCCO3)CC2)c(C(=O)OC)c1C (configuration not stated)
    /	22	4	2.2	?	3	-0.2
- CCOCCCn1c(C)nc2c(c1=O)c1nc3ccccc3nc1n2CCC1=CCCCC1
    ?	-2	-8	-0.3	6.9	19	-7.4
- Cc1ccc(-c2cc(C(=O)N3CCN(c4ccccc4O)CC3)c3ccccc3n2)o1
    -3%	4	1	-0.3	-1.6	10	-1.3
- COc1ccc(C)cc1S(=O)(=O)N(C)CC(=O)NCc1ccco1
    15%	3	-1	2.0	3.5	-14	-0.5
- O=C(c1cccnc1)N1CCCc2ccccc21
    2%	-24	22	1.8	-0.4	0	0.1
- O=C(c1ccc(Cl)cc1)C(CN1CCCCC1)c1ccccc1 (configuration not stated)
    0%	97*	3	-1.5	?	3	-3.6

Rows were taken by chance; overall some 6.3% were active at least once.
